Polio RdRp inh = poliovirus RNA polymerase inhibition; AID 588519; P03300; poliovirus polymerase elongation, fluorescence polarization; hits give low values; % elongation, % (compound at 16.7 µg/mL); actives 0.66% (n = 150,000); in the data active means % elongation below about 90%; further: some results filed as inactive read as strong as hits
Target sequence (P03300 1749-2209 limits assumed): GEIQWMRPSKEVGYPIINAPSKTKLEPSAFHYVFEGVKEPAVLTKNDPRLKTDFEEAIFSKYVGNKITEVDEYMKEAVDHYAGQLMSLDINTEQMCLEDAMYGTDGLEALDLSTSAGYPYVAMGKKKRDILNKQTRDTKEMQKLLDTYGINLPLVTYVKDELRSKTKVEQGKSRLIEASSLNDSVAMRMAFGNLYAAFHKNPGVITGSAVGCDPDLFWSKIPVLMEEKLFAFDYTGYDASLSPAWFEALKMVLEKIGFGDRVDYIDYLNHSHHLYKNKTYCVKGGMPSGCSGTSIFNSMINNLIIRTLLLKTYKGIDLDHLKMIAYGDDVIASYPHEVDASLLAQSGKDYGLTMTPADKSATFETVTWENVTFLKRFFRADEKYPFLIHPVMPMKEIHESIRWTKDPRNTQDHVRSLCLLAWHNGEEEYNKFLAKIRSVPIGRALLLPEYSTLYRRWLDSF
Polio RdRp inh intensity = also measured in Polio RdRp inh; calls as there; % elongation; measured here: total intensity read-out; formula for this scale not given here;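 total fluorescence in place of polarization; lower means less elongation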
* hit, by the source's call. Not all compounds are listed. The share of hits here may be higher or lower than overall.

Order of values – Polio RdRp inh, Polio RdRp inh intensity
> COc1ccc(NC(=O)Nc2cc(-c3cn4cccnc4n3)ccc2OC)cc1
    101.0, 107.0
> CC(C)CN(C(=O)c1cccc(S(=O)(=O)N2CCCCC2)c1)C1CCS(=O)(=O)C1 (stereo not given)
    100.0, 106.0
> COc1ccc(N2CC(c3nc(-c4ccccc4C)no3)CC2=O)cc1Cl (stereo not given)
    112.0, 112.0
> Cc1ccc(C)n1-c1c(C(=O)NCC(C)c2ccccc2)sc2ncccc12 (stereo not given)
    104.0, 111.0
> COc1ccccc1C(=O)Nc1ccc(OCc2cc(=O)n3ccc(C)cc3n2)cc1
    111.0, 112.0
> O=C(NC1CCCCC1)c1ccc(Cn2c(SCc3cccc(F)c3)nc3cccnc32)cc1
    110.0, 112.0
> CCOc1ccc(CNC(=O)Cn2nc(C)c3sc4ccccc4c3c2=O)cc1
    107.0, 96.0
> COc1ccc(NC(=O)C2CCN(C(=O)c3sc4nc[nH]c(=O)c4c3C)CC2)c(OC)c1
    114.0, 117.0
> CCOC(=O)c1scc(-c2ccccc2)c1S(=O)(=O)Nc1ccccc1OC
    108.0, 112.0
> CC(=O)c1ccc(NC(=O)Cn2c(=O)nc(-c3ccccc3)c3cc(Cl)ccc32)cc1
    103.0, 94.0
> O=C(COCc1cc(-c2cccs2)on1)NCc1ccccc1Cl
    101.0, 105.0
> CCN(CC)S(=O)(=O)c1ccc2c(c1)nc(CN(C)C(=O)c1cccc(Cl)c1)n2C
    101.0, 106.0
> CC1=C(C(=O)Nc2ccc(C)c(C)c2)C2(CCCCCC2)OC1=O
    105.0, 87.0
> Cc1ccc(N2CC(NC(=O)C3CCCCC3)CC2=O)cc1 (stereo not given)
    105.0, 109.0
> O=C(Cn1c(=O)n(Cc2ccc(F)cc2)c(=O)c2sc3ccccc3c21)NCc1ccccc1
    104.0, 106.0
> Cc1ccc(C(=O)Nc2onc3c2CCCC3)cc1
    102.0, 109.0
> COc1ccc(OC)c(CCNC(=O)c2ccc3[nH]c(C)c(C)c3c2)c1
    111.0, 100.0
> CCc1cccc(C)c1NC(=O)c1cccc(C(=O)Nc2c(C)cccc2CC)c1
    104.0, 105.0
> COc1cccc(N2CCN(c3c4c(nc5nncn35)CCC4)CC2)c1
    105.0, 104.0
> CCCCN1C(=O)CN(C2CCCCC2)C(=O)C1c1ccc(OC(C)C)c(OC)c1 (stereo not given)
    109.0, 113.0
> CN(Cc1ccco1)S(=O)(=O)c1nnc(NC(=O)c2cccc(Cl)c2)s1
    98.0, 107.0
> CCCCOc1ccc(CNC(=O)CN2CCSc3ccccc32)cc1
    111.0, 117.0
> Cc1ccc2nc(-c3ccc(NC(=O)COc4ccc(Br)cc4Br)cc3)sc2c1
    101.0, 106.0
> CCOC(=O)c1ccc(NC(=O)c2nc(S(=O)(=O)Cc3ccccc3)ncc2Cl)cc1
    103.0, 104.0
> CC(C)(C)C(=O)Nc1cccc(C(=O)OCc2cc(=O)n3nc(C4CC4)sc3n2)c1
    106.0, 104.0
> COC(=O)c1c(Oc2ccc(OC)cc2)nnc(-c2ccccc2)c1-c1ccccc1
    102.0, 98.0
> COc1ccc(-c2nc3ccccc3o2)cc1NC(=O)c1ccc(-c2ccc(Br)cc2)o1
    104.0, 102.0
> COc1cccc(C2CC(=O)Nc3cc4c(cc32)OCCO4)c1OC (stereo not given)
    102.0, 105.0
> Cc1ccccc1OCCCCn1c(CCNC(=O)C(C)(C)C)nc2ccccc21
    108.0, 111.0
> Cc1ccc(C)c(-c2ccc(=O)n(Cc3c(F)cccc3Cl)n2)c1
    115.0, 106.0

Part of the list above, with tabs:
Compound	Polio RdRp inh	Polio RdRp inh intensity
O=C(COCc1cc(-c2cccs2)on1)NCc1ccccc1Cl	101.0	105.0
CCN(CC)S(=O)(=O)c1ccc2c(c1)nc(CN(C)C(=O)c1cccc(Cl)c1)n2C	101.0	106.0
CC1=C(C(=O)Nc2ccc(C)c(C)c2)C2(CCCCCC2)OC1=O	105.0	87.0
Cc1ccc(N2CC(NC(=O)C3CCCCC3)CC2=O)cc1 (stereo not given)	105.0	109.0
O=C(Cn1c(=O)n(Cc2ccc(F)cc2)c(=O)c2sc3ccccc3c21)NCc1ccccc1	104.0	106.0
Cc1ccc(C(=O)Nc2onc3c2CCCC3)cc1	102.0	109.0
COc1ccc(OC)c(CCNC(=O)c2ccc3[nH]c(C)c(C)c3c2)c1	111.0	100.0
CCc1cccc(C)c1NC(=O)c1cccc(C(=O)Nc2c(C)cccc2CC)c1	104.0	105.0
COc1cccc(N2CCN(c3c4c(nc5nncn35)CCC4)CC2)c1	105.0	104.0
CCCCN1C(=O)CN(C2CCCCC2)C(=O)C1c1ccc(OC(C)C)c(OC)c1 (stereo not given)	109.0	113.0
CN(Cc1ccco1)S(=O)(=O)c1nnc(NC(=O)c2cccc(Cl)c2)s1	98.0	107.0
CCCCOc1ccc(CNC(=O)CN2CCSc3ccccc32)cc1	111.0	117.0
Cc1ccc2nc(-c3ccc(NC(=O)COc4ccc(Br)cc4Br)cc3)sc2c1	101.0	106.0
CCOC(=O)c1ccc(NC(=O)c2nc(S(=O)(=O)Cc3ccccc3)ncc2Cl)cc1	103.0	104.0
CC(C)(C)C(=O)Nc1cccc(C(=O)OCc2cc(=O)n3nc(C4CC4)sc3n2)c1	106.0	104.0
COC(=O)c1c(Oc2ccc(OC)cc2)nnc(-c2ccccc2)c1-c1ccccc1	102.0	98.0
COc1ccc(-c2nc3ccccc3o2)cc1NC(=O)c1ccc(-c2ccc(Br)cc2)o1	104.0	102.0
COc1cccc(C2CC(=O)Nc3cc4c(cc32)OCCO4)c1OC (stereo not given)	102.0	105.0

Following part:
Order of values – Polio RdRp inh, Polio RdRp inh intensity
> O=C(Cn1c(=O)n(-c2ccc(Cl)cc2)c(=O)c2oc3ccccc3c21)Nc1ccccc1
    112.0, 103.0
> CC(C)OC(=O)C(C(=O)C(F)(F)F)c1cc(NS(=O)(=O)c2ccc3c4c(cccc24)C(=O)N3)ccc1O (stereo not given)
    106.0, 109.0
> CCOC(=O)c1c(NC(=O)c2cc(=O)c3ccc(C)cc3o2)sc(C)c1C
    102.0, 99.0
> CCc1ccc(NC(=O)c2cc(S(=O)(=O)N3CCCC(C)C3)cn2C)cc1 (stereo not given)
    109.0, 104.0
> Cc1ccc2nc(Nc3ccc(Br)cc3)nc(-c3ccccc3)c2c1
    108.0, 111.0
> CC(=O)N1c2ccc(S(=O)(=O)N3CCCCCC3)cc2CC1C(=O)NCc1cccc(F)c1 (stereo not given)
    106.0, 107.0
> CCOc1ccc(-c2nc(SCC(=O)NCCOC)c(-c3ccc(OC)c(OC)c3)[nH]2)cc1
    108.0, 113.0
> CCOc1ccc(OCC)c(NC(=O)C(NS(=O)(=O)c2ccc(Br)s2)c2ccccc2)c1 (stereo not given)
    109.0, 103.0
> CC(C)(C)c1ccc(C(=O)N2CCCCC2CCN2CCCCC2)cc1 (stereo not given)
    114.0, 115.0
> CCc1cccc(CC)c1N(COC)C(=O)Cn1c(C)nc2ccccc21
    100.0, 104.0
> COc1ccc(CCNC(=O)C(=O)NCC(c2ccco2)S(=O)(=O)c2ccccc2)cc1 (stereo not given)
    102.0, 106.0
> COc1cccc(OCCSc2nc(C)c(Cc3ccccc3)c(=O)[nH]2)c1
    111.0, 111.0
> Cc1ccc(Cn2c(C(=O)NCc3ccccc3Cl)cc3sccc32)cc1
    100.0, 108.0
> CCN1CCN(Cc2c(O)ccc3oc(C)c(C(=O)Nc4ccc(OC)c(Cl)c4)c23)CC1
    110.0, 108.0
> Cc1ccc(NC(=O)/C(C#N)=C/c2cc(C)n(-c3ccc(Br)cc3)c2C)cc1C
    109.0, 113.0
> COc1ccc(N2CCN(c3nc(-c4ccccc4F)nc4ccccc34)CC2)cc1
    108.0, 109.0
> Clc1ccc(-c2cn3cc(Cc4ccccc4)sc3n2)cc1
    108.0, 108.0
> CNC(=O)c1ccc2c(c1)N=C(C)c1cc(C)ccc1S2
    113.0, 113.0
> CCc1ccc(NC(=O)c2sc3nc(C)cc(C)c3c2NC(=O)c2ccccc2OC)cc1
    108.0, 110.0
> Cc1ccc(NC(=O)NCCc2c(C)nn(C)c2C)c(Cl)c1
    109.0, 105.0
> O=C(NC1CCCC1)c1ccc2c(c1)N(Cc1ccc(C(F)(F)F)cc1)C(=O)c1ccccc1S2
    110.0, 111.0
> Cc1ccc(CNC(=O)CSc2cc(C)[nH]c(=O)n2)cc1
    109.0, 113.0
> CC(C)Oc1ccc(CNC(=O)c2cccc(NC(=O)N3CCSc4ncccc43)c2)cc1
    102.0, 107.0
> Cc1ccc(CNC(=O)Cn2c(=O)n(Cc3ccccc3)c(=O)c3c2c2cc(C)ccc2n3C)cc1
    112.0, 115.0
> CCOC(=O)c1cc2c(=O)n3ccccc3nc2n(CC2CCCO2)c1=NC(=O)c1ccc(F)cc1 (stereo not given)
    107.0, 111.0
> COc1cccc(NC(=O)c2nn(-c3ccc(C)cc3)c(=O)n(C)c2=O)c1
    111.0, 105.0
> COc1cccc(CNC(=O)c2cc(S(=O)(=O)N3CCCCC3)cn2C)c1
    109.0, 109.0
> CCOc1ccc(NC(=O)c2c(NC(=O)Cc3ccccc3)sc3c2CCCCC3)cc1
    75.0*, 78.0*
> Cc1nn(-c2ccc(N3CCCC3)nn2)c(C)c1CCC(=O)NCc1ccccc1F
    101.0, 107.0
> COc1cc(C2C(=O)N(C3CCCCCC3)CC(=O)N2CCc2ccccc2)ccc1OC(C)C (stereo not given)
    114.0, 112.0
> O=C(CN1C(=O)COc2ccc(S(=O)(=O)N3CCCC3)cc21)N1CCN(c2ccc(Cl)cc2)CC1
    110.0, 110.0
> Cc1cccc(NC(c2nnc(-c3ccccc3)o2)c2ccc(F)cc2Cl)c1C (stereo not given)
    105.0, 111.0
> CCC(=O)N1c2ccccc2CC1C(=O)NCCN1CCN(c2cc(Cl)ccc2C)CC1 (stereo not given)
    103.0, 109.0
> O=C(Nc1ccc(Br)cc1F)c1ncoc1-c1ccco1
    107.0, 109.0
> Cc1cccc(NC(=O)CSc2nc(=O)n(Cc3ccccn3)c3c2CCC3)c1C
    105.0, 109.0
> CCOC(=O)N1CCc2c(sc3c2C(=O)NC(c2cc(OC)c(OC)c(OC)c2)N3)C1 (stereo not given)
    105.0, 108.0
> COc1ccc(C(=O)N2CCC(C(=O)Nc3ccccc3Cl)CC2)cc1
    109.0, 109.0
> Cc1ccc(C)c(NS(=O)(=O)c2ccc3c(c2)n(C)c(=O)n3C)c1
    106.0, 113.0
> O=C(CCCn1c(=O)c2cccn2c2cccnc21)Nc1ccccc1C(F)(F)F
    106.0, 113.0
> COc1ccc(-c2nc3ccccc3o2)cc1NC(=O)c1cc([N+](=O)[O-])ccc1N1CCOCC1
    107.0, 110.0
> COc1ccccc1CNC(=O)CCCCn1c(=O)c2ccccc2n(Cc2ccccc2F)c1=O
    102.0, 105.0
> COc1cc(-c2nc(C(N)=O)c3c(n2)n(-c2cccc(C)c2)c(=O)n3C)cc(OC)c1OC
    106.0, 110.0
> CCN1C(=O)c2ccccc2S(=O)c2ccc(C(=O)NCc3ccc(OC)cc3)cc21 (stereo not given)
    107.0, 106.0
> CCOC(=O)c1c(-c2ccc(Br)cc2)csc1NC(=O)c1ccc(F)cc1
    105.0, 109.0
> COc1ccc(Nc2nc(-c3ccc(C)cc3)nc3ccccc23)c(OC)c1
    105.0, 107.0
> Cc1cccc(Cn2c(CNS(=O)(=O)c3ccc4c(c3)CCCC4)nc3cccnc32)c1
    108.0, 115.0
> COc1ccccc1CNC(=O)c1ccc(CS(=O)(=O)c2c(Cl)cccc2Cl)o1
    109.0, 111.0
> CCOc1ccccc1NC(=O)c1cc2c(Cl)nc3ccccc3c2s1
    105.0, 112.0
> CCN(CC)CCNC(=O)C1CCN(S(=O)(=O)c2c(C)noc2/C=C/c2ccccc2F)CC1
    113.0, 108.0
> COc1ccc(N2CCN(C(=O)c3cc4ccc5cccnc5c4[nH]3)CC2)cc1
    101.0, 107.0

More records follow.
Order of values – Polio RdRp inh, Polio RdRp inh intensity
> Cc1ccccc1NC(=O)CC1NCCNC1=O (stereo not given)
    106.0, 103.0
> O=C(CSc1nc2ccccc2n1Cc1ccc(F)c(Cl)c1)N1CCN(c2ccc(F)cc2)CC1
    115.0, 112.0
> Cc1ccc(N2C(=O)CS(=O)(=O)C23C(=O)N(Cc2cccc(F)c2)c2ccccc23)cc1Cl (stereo not given)
    105.0, 108.0
> Cc1ccc(C)c(OCCn2c(-c3ccc(Cl)cc3)nc3ccccc3c2=O)c1C
    106.0, 110.0
> CCOc1ccc(NC(=O)c2sc3ccccc3c2Cl)cc1
    108.0, 110.0
> CC1CCN(C(=O)c2ccc(NC(=O)c3nsc4ccccc34)cc2)CC1
    110.0, 111.0
> Brc1ccc(CNCCCSc2nnnn2-c2ccccc2)cc1
    111.0, 107.0
> COc1ccccc1OCCn1c(-c2ccc(Br)cc2)nc2ccccc2c1=O
    107.0, 109.0
> COc1cccc(CNC(=O)CSc2cc(C)[nH]c(=O)n2)c1
    108.0, 109.0
> COc1ccc(-n2c(=O)c3ccc(C(=O)NCc4ccc(C)cc4)cc3n(Cc3ccc(F)cc3Cl)c2=O)cc1
    106.0, 108.0
> CCOC(=O)c1cccc(NC(=O)c2cnc(N3CCCCC3)c3ccccc23)c1
    105.0, 114.0

Bioassay records as filed in PubChem BioAssay.
